Ecoli growth: blocks Escherichia coli growth | OD600, 23 h; hits give low values | OD600 absorbance (concentration not given with the values) | 0.21% of 330,000 active;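 active = OD600 absorbance below the run mean of sample wells minus 3.6 SD, in any replicate, cut at about 0.56 in these data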;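 note: stock transfer was 300 nL into about 60 µL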
MLL AF4-AF9 inh: inhibitors of human MLL-AF4/AF9 interaction | P42568 | AlphaScreen, biotin-AF4 peptide binding to FLAG-AF9 | inhibition, % at 10 µM | 0.47% of 350,000 active;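 active = every replicate reaching a set inhibition limit, whatever the replicate mean, cut at about 25% in these data; inconclusive = mean inhibition reaches that limit but some replicates miss it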;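 note: 0% = plate neutral control median and 100% = total signal loss; the record names both 10 and 1 µM as test concentration; the first replicate is given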
Target sequence (P42568 whole entry, looked up): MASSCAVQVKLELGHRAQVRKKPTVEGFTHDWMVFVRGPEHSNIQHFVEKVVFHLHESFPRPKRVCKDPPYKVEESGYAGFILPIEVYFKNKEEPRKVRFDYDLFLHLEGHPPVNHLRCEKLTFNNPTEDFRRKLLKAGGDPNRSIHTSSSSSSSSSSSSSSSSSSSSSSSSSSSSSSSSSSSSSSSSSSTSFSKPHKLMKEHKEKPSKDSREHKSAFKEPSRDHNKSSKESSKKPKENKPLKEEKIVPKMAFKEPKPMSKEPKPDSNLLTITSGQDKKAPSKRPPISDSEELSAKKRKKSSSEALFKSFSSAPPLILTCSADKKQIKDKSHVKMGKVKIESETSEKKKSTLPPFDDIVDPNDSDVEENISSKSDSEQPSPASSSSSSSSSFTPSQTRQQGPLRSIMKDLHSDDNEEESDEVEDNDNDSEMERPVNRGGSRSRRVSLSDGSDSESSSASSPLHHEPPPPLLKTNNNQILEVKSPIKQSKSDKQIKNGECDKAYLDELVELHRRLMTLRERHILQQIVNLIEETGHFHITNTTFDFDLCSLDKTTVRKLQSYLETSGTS
rRNA inh HTS: inhibitors of bacterial rRNA selective over humanized ribosomes; GFP signal change (wild-type ribosome), % (no concentration beside the values); 1.6% of 350,000 active; E. coli WT GFP vs humanized-ribosome RFP mutants, fluorescence, 24 h; hits give low values; DMSO median 0, no signal -100;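 active = significant combined selectivity score with lowered wild-type GFP, culture density cut under 30%, mutant RFP and density less affected; inactive = any of these conditions unmet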; note: one replicate is shown; some compounds called inactive have numbers as strong as hits
FGF22 binding: shifts melting point of recombinant human FGF22 | Q9HCT0 | AID 651658 | calls only at 9.99 µM | 1.5% of 340,000 active | recombinant FGF22 thermal shift, SYPRO orange fluorescence; percent of sucrose octasulfate shift, DMSO zero;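 active = melting point raised past a set limit in the mean and every replicate; inconclusive = no clear call; three in four hits are not shown here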
Target sequence (Q9HCT0 whole entry, looked up): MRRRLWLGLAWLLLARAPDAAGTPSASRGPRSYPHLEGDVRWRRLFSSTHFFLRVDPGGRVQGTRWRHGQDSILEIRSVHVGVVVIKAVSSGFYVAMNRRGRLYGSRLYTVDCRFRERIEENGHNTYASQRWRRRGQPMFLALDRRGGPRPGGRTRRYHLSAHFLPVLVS
Vif TR-FRET: inhibitors of Vif binding to APOBEC3G peptide, primary screen, biochemical, TR-FRET, GST-Vif 1-94, biotin-A3G peptide, dose response retest (AID 1117319); TR-FRET GST-Vif / biotin-A3G peptide binding; higher % means a stronger effect; test concentration not given here; strong numbers were not always called active; inhibition, %; hits with a dose series show IC50 in µM; 0.57% of 260,000 active;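 active = above the screen mean plus three standard deviations and confirmed in dose response; inconclusive = results disagree or hit not tested in dose response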;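 note: Vif residues 1-94 fused to GST binding biotinylated APOBEC3G peptide 110-148; 0% = full assay without inhibitor and 100% = GST in place of GST-Vif; retest series ran down from 100 µM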
ALR inh: blocks human ALR sulfhydryl oxidase activity; purified ALR, DTT oxidation, H2O2 HRP-luminol luminescence; inhibition, % (concentration not given with the values); 3.8% of 290,000 active;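 active = mean and each replicate at 75% or more; inconclusive = only one of the two met; inactive = neither met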;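 note: stock transfer was 7.5 nL into about 7.5 µL; 0% = neutral wells and 100% = wells with inactivated enzyme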
Target sequence (P55789 whole entry, looked up): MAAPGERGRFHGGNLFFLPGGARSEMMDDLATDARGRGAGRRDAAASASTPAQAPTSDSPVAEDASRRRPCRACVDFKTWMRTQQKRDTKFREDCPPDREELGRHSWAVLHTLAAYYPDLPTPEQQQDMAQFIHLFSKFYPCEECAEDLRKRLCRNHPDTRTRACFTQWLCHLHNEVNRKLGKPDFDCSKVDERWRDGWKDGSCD
HNF4A DNA FP: change in binding of human HNF4 alpha to DNA; P41235; HNF4a-FITC DNA binding, fluorescence polarization, 1 h; activity change, % at 10 µM; 0.3% of 360,000 active; in the data active = activity change above about 30%, passing the limit was not always enough;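 note: controls were the assay level and a saturating level of protein; the project sought stronger binding though the title names inhibitors; some compounds called inactive have numbers as strong as hits; positive values seem to mean higher polarization but the record does not say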
rRNA inh HTS OD600: second read-out of rRNA inh HTS, no call of its own (marks repeat the call); OD600 change, %; measured here: OD600 growth;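 optical density of the mix in the first replicate; 0 = DMSO median and -100 = no signal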
rRNA inh HTS RFP: further read-out of rRNA inh HTS, marked with its call; RFP signal change, %; measured here: RFP humanized mutant strains;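 first replicate; 0 = DMSO median and -100 = no signal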
Numbers without * were called inactive; i = inactive; u = inconclusive; x = no result given; & = joins results of further samples. An excerpt. The share of hits here may be higher or lower than overall.

Structure | Ecoli growth | MLL AF4-AF9 inh | rRNA inh HTS | rRNA inh HTS OD600 | rRNA inh HTS RFP | FGF22 binding | Vif TR-FRET | ALR inh | HNF4A DNA FP
Cc1cc(C)c2nc(NC(=O)[C@@H](NC(=O)c3cccc(S(=O)(=O)N4CCOCC4)c3)C(C)C)sc2c1 | 0.7 | x | x | x | x | x | 21% | 0 | 3.5
CCN(C(=O)CSc1nc2nc(C)cc(C)n2n1)C1CCS(=O)(=O)C1 (centres undefined) | 0.67 | 0.2 | 3 | 1 | -0.4 | i | -3% | x | 0.4
CCN(CC)C(=O)Cn1cc(C(=O)C(=O)N2CCN(C)CC2)c2ccccc21 | 0.68 | -1.2 | x | x | x | i | x | -15 | -0.2
COc1ccc(/C=N/NC(=O)c2ccc(Br)cc2)cc1Cn1cc(Cl)cn1 | x | -10 | 16 | 14 | 1.3 | i | -4% | -3 | 3.7
O=C(NNC1=NS(=O)(=O)c2ccccc21)c1cccc([N+](=O)[O-])c1 | 0.69 | 1.4 | 4 | 15 | -10 | i | x | 4 | -0.9
C[C@@H]1CN([C@H](C)CO)C(=O)Cc2cc(NC(=O)C3CC3)ccc2O[C@@H]1CN(C)S(=O)(=O)c1cccs1 | x | -2.0 | 2 | 5 | 0.5 | i | x | x | x
O=C(NCCCN1CCOCC1)c1ccccc1NS(=O)(=O)c1cc([N+](=O)[O-])ccc1Cl | 0.73 | -2.2 | 17 | -4 | 0.8 | i | x | -2 | 3.5
COc1ccccc1Nc1cc(C(=O)NCc2cccnc2)c2ccccc2n1 | 0.7 | -6.3 | -9 | -13 | -0.2 | i | 0% | 29 | 0.5
COc1ccc(NC(=O)Nc2cccc3c2O[C@@H](CN(C)Cc2ccc(C(F)(F)F)cc2)[C@H](C)CN([C@@H](C)CO)C3=O)cc1 | x | 4.8 | 1 | 1 | 1.3 | i | x | x | x
NC(=O)C1CCN(c2nnnn2-c2ccccc2)CC1 | 0.77 | x | x | x | x | x | -2% | -5 | -0.8
O=C(Nc1c2c(nn1-c1ccc(Cl)cc1)CS(=O)(=O)C2)c1ccc2c(c1)OCO2 | 0.66 | x | x | x | x | x | 6% | -9 | -0.2
O=C1N=C(N2CCOCC2)S/C1=C\c1ccccc1OS(=O)(=O)c1ccccc1 | 0.63 | -2.7 | 10 | -8 | -1.6 | i | -7% | -4 | -4.2
CCOc1ccccc1NC(=O)CN(c1cc(C)cc(C)c1)S(=O)(=O)c1c(C)noc1C | 0.74 | 1.5 | -5 | -5 | -9.5 | i | -1% | -24 | 3.8
COC(=O)c1[nH]c2cccc(OC)c2c1NC(=O)CN1CC2(C)CC1CC(C)(C)C2 (centres undefined) | 0.75 | x | x | x | x | x | 7% | -10 | -1.8
CC(C)NC(=O)N(C)C[C@@H]1Oc2ccc(NC(=O)Cc3cn(C)c4ccccc34)cc2CC(=O)N([C@H](C)CO)C[C@@H]1C | x | 3.0 | 9 | 12 | -1.4 | i | x | x | x
CC(=O)NC(C)(c1ccccc1)c1nc(/C=C/c2ccccc2)cs1 (centres undefined) | x | 6.5 | -16 | -59 | 2.2 | i | x | x | -0.8
CCCC(=O)N1c2ccc(-c3csc(N)n3)cc2CC1C (centres undefined) | 0.65 | x | x | x | x | x | -4% | 99* | 1.4
O=C1NC2=C(CCc3ccccc32)C(c2ccc(Br)cc2)N1 (centres undefined) | 0.68 | x | x | x | x | x | 3%&24% | -71 | 0.6
C[C@@H]1CN([C@@H](C)CO)C(=O)c2cc(NC(=O)Nc3cccc4ccccc34)ccc2O[C@@H]1CN(C)C(=O)Nc1ccc(F)cc1 | x | -0.5 | 0 | 6 | 1.0 | i | x | x | x
COc1ccc(CCNC(=O)CSc2nc3ccsc3c(=O)n2Cc2ccccn2)cc1OC | x | -6.8 | 7 | 0 | 0.9 | i | -1% | x | -2.4
CCCc1c(C(=O)N/N=C/c2cccnc2)nnn1-c1nonc1N | x | -0.5 | 7 | 8 | 1.3 | i | x | -2 | -0.6
C[C@H]1CCCCO[C@@H](CN(C)Cc2ccc(C(=O)O)cc2)[C@@H](C)CN([C@@H](C)CO)C(=O)c2cc(NC(=O)CCC(F)(F)F)ccc2O1 | x | -1.2 | 0 | 2 | 0.3 | i | x | x | x
COc1ccc(NC(=O)Nc2ccc3c(c2)C(=O)N([C@H](C)CO)C[C@@H](C)[C@H](CN(C)S(=O)(=O)c2ccc(F)cc2)OCCCC[C@@H](C)O3)cc1 | x | 1.6 | 3 | 4 | 0.8 | i | x | x | x
O=C1NC[C@@H](CCCCN2CCN(CCc3ccccc3)C(=O)C2=O)N(CCC2CCCCC2)C1=O | x | -1.2 | -3 | -6 | 0.5 | i | x | x | 2.4
CC(=O)NC(c1ccc(F)c(F)c1)c1nc(-c2ccccc2C)cs1 (centres undefined) | x | -1.0 | -21 | -63 | 0.8 | i | x | x | -8.4
Cc1nc(-c2ccc(S(=O)(=O)NCc3cccnc3)s2)cs1 | 0.66 | -2.9 | 4 | 4 | 1.7 | i | -1% | -11 | -0.1
C=C(C)COc1ccc(-c2[nH]ncc2-c2ccccc2OC)c(O)c1 | 0.7 | x | x | x | x | x | -2% | 11 | -3.9
Cc1noc(C)c1NC(=O)Nc1cccc2c1O[C@@H](CN(C)C)[C@H](C)CN([C@H](C)CO)C2=O | x | -0.6 | 3 | 6 | 0.4 | i | x | x | x
Nc1cccnc1Oc1ccc(F)cc1 | 0.65 | -1.0 | 7 | 9 | 1.8 | i | x | -12 | -3.2
COc1cccc(C(=O)NNC(=O)c2ccccc2)c1 | 0.69 | -2.1 | 16 | 11 | 0.6 | i | x | -10 | 1.9

Some values from the list:
In Ecoli growth, CCN(CC)C(=O)Cn1cc(C(=O)C(=O)N2CCN(C)CC2)c2ccccc21 is entered as 0.68
In rRNA inh HTS, C[C@H]1CCCCO[C@@H](CN(C)Cc2ccc(C(=O)O)cc2)[C@@H](C)CN([C@@H](C)CO)C(=O)c2cc(NC(=O)CCC(F)(F)F)ccc2O1 is entered as 0

(list continues)
Structure | Ecoli growth | MLL AF4-AF9 inh | rRNA inh HTS | rRNA inh HTS OD600 | rRNA inh HTS RFP | FGF22 binding | Vif TR-FRET | ALR inh | HNF4A DNA FP
O=C(O)/C=C\C(=O)NCc1ccccc1 | 0.64 | x | x | x | x | x | 0% | 1 | 0.8
CC1CCN(C(=O)c2ccc3c(c2NCCO)C(=O)c2ccccc2C3=O)CC1 | 0.75 | x | x | x | x | x | u | -8 | 4.6
O=c1/c(=C\c2ccc(O)cc2)sc2n1C(c1ccccc1)C(c1ccccc1)=NN=2 (centres undefined) | x | x | x | x | x | x | 2% | 1 | 41*
O=C(NCc1ccccc1)c1nc2c(nnn2Cc2cccc(Cl)c2)c(=O)[nH]1 | 0.7 | 1.8 | -19 | -2 | 9.9 | i | 12% | 3 | -3.4
O=C(Cn1c(=O)c(=O)n(Cc2ccccc2)c2ccc(Cl)cc21)NCC1CCCO1 (centres undefined) | 0.69 | -0.4 | 26 | 24 | 0.4 | i | -7% | -8 | -1.5
COC(=O)CC1C(=O)NCCN1C(=O)CSc1nnc(Nc2ccc(OC)cc2)s1 (centres undefined) | 0.73 | x | x | x | x | x | -2% | x | -3.9
CC(=O)Nc1ccc(S(=O)(=O)N2CCC(NC(C)=O)(c3cccc(F)c3)CC2)cc1 | 0.71 | x | x | x | x | x | x | -13 | -1.8
COCC(=O)N(C)C[C@@H]1Oc2cc(-c3ccccc3)ccc2S(=O)(=O)N([C@@H](C)CO)C[C@@H]1C | x | 1.0 | -7 | 7 | -0.7 | i | x | x | x
Cc1nc(C)c(C(=O)Nc2ccc(C)c(F)c2)o1 | 0.66 | x | x | x | x | x | 16% | 1 | 3.5
C=CCNC(=S)Nc1ccc(OC)c(S(=O)(=O)N2CCOCC2)c1 | 0.68 | -0.5 | 14 | 8 | 0.6 | i | 0% | 9 | 1.1
COc1ccccc1NC(=O)N(C)C[C@H]1Oc2ncc(C#CCC(C)C)cc2C(=O)N([C@@H](C)CO)C[C@H]1C | x | 0.6 | 0 | -1 | -1.3 | i | x | x | x
CC(C)(C)C1CCC(=NNC(=O)CN(c2ccccc2)S(=O)(=O)c2ccccc2[N+](=O)[O-])CC1 (centres undefined) | 0.71 | x | x | x | x | x | -12% | -5 | -3.0
O=C(COC(=O)c1cccc(S(=O)(=O)N2CCc3ccccc3C2)c1)NCc1ccco1 | 0.67 | x | x | x | x | x | 25%&8% | -14 | -2.8
Oc1ccc(C=NC2CCCCC2)c(O)c1 | 0.72 | -1.0 | 5 | 4 | -2.1 | i | 22% | 11 | 1.3
COc1ccc(N(CN2C(=O)C3C4C=CC(C4)C3C2=O)C(=O)c2ccco2)cc1 (centres undefined) | 0.71 | x | x | x | x | x | -2% | 6 | 2.9
Cc1ccc(S(=O)(=O)Nn2c(C)nnc2-n2nc(C)cc2C)cc1 | 0.73 | x | x | x | x | x | 5% | 1 | 0.1
O=C(NCc1ccccc1CN1CCCCC1)c1ccc(Cl)cc1N1CCCC1=O | 0.67 | 1.6 | 19 | 3 | 3.6 | i | -8% | 9 | -2.8
COc1ccccc1Cc1c(-c2ccc(F)cc2)nc2c(C)cc(Br)cn12 | x | -0.7 | -32* | -21* | 4.6* | i | x | x | 15
CN(C)CCNC(=O)NC1CCCCC1 | 0.63 | x | x | x | x | x | 8% | x | -1.6
CC(C)c1ccc(NC(=O)C2CSC3(C)CCC(=O)N23)cc1 (centres undefined) | 0.7 | 0.8 | 7 | 8 | 0.7 | i | x | -3 | 2.6
COC(=O)c1ccccc1N/C=C1\CCc2c(c(C)nn2-c2ccccn2)C1=O | x | x | x | x | x | x | 11% | -6 | -3.1
O=C(COC(=O)c1ccccc1Br)Nc1ccc2[nH]c(=O)[nH]c2c1 | 0.67 | -4.5 | 3 | 6 | -4.2 | i | x | -3 | 2.3
C[C@H](CO)N1C[C@H](C)[C@@H](CN(C)C(=O)NC2CCCCC2)OCCCC[C@H](C)Oc2ccc(NC(=O)c3ccncc3)cc2C1=O | x | -3.5 | -1 | -5 | -1.0 | i | x | x | x
C#CCNC(=O)C[C@H]1C[C@@]2(C(=O)OC)C(=C[C@H](C(C)(C)C)O[C@@H]2C)N(Cc2ccccc2)C1=O | x | 0.8 | -3 | -6 | 2.9 | i | x | x | x
CS(=O)(=O)N1CCC(C(=O)Nc2cccc(C(F)(F)F)c2)CC1 | 0.73 | x | x | x | x | x | 31% | 1 | 0.3
O=C(Nn1c(SCc2ccc([N+](=O)[O-])cc2)nc2ccccc2c1=O)c1ccc(F)cc1 | 0.69 | -2.7 | 3 | 6 | 0.0 | i | -3% | -6 | -4.8
CC1Cc2ccccc2N1CC(=O)Nc1ccc(N2CCOCC2)cc1 (centres undefined) | 0.68 | 4.9 | 3 | 4 | -3.2 | i | -4% | -6 | 2.3
Cc1cccc(-n2c(C)nc3c(cnn3-c3ccc(F)cc3)c2=O)c1 | 0.7 | x | x | x | x | x | 2% | 4 | 0.9

Entries of single compounds as entered above. Values in the order: Ecoli growth | MLL AF4-AF9 inh | rRNA inh HTS | rRNA inh HTS OD600 | rRNA inh HTS RFP | FGF22 binding | Vif TR-FRET | ALR inh | HNF4A DNA FP
Results for COC(=O)c1ccccc1N/C=C1\CCc2c(c(C)nn2-c2ccccn2)C1=O = x | x | x | x | x | x | 11% | -6 | -3.1
Results for O=C(COC(=O)c1ccccc1Br)Nc1ccc2[nH]c(=O)[nH]c2c1 = 0.67 | -4.5 | 3 | 6 | -4.2 | i | x | -3 | 2.3

Screens: PubChem BioAssay, several laboratories
